BJeLR viability: BJeLR cell viability reduction; hit rate 0.64% among 30,000; viability loss activity score, % (concentration not given with the values); BJeLR fibroblasts viability, CellTiterGlo ATP luminescence, 48 h; HRASV12, hTERT and SV40 LT/ST transformed; in the data active = viability loss activity score above about 50%; about a fifth of its hits are not listed in these tables;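 also: higher score means fewer live cells and less ATP luminescence; stock transfer was 50 or 100 nL into about 30 µL; 0% = vehicle wells and 100% = a reference killing control; one replicate is shown; the record names a cut of 85%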
A1 inhib: A1 inhibition. MEF A1-2A-BIM cells, caspase-Glo luminescence, 3 h; percent of clofoctol signal, DMSO as zero. caspase activation, % (test concentration not listed). hit rate 0.51% among 21,000;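 active = most replicate scores above 10, or exactly half above 10 with mean activity above 10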;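 also: effector caspase 3 and 7 activity cleaving a DEVD luciferin substrate; 50 nL library stock added to about 30 µL; numbers are from one replicate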
The depositor's hits bear a star; nt = not tested or not shown.

Below each compound: BJeLR viability | A1 inhib
- C[C@@H]1CN([C@H](C)CO)C(=O)c2cc(NS(=O)(=O)c3ccc(F)cc3)ccc2O[C@@H]1CN(C)S(=O)(=O)c1cccs1
    6.0 | -0.6
- C[C@H]1CN([C@@H](C)CO)C(=O)c2cc(NS(=O)(=O)c3ccc(Cl)cc3)ccc2O[C@@H]1CN(C)S(=O)(=O)c1cccs1
    0.7 | 0.6
- COc1ccc(CCC(=O)NCc2cn3ccc(C)cc3n2)cc1
    -6.9 | 0.2
- CC1(C)CC(=O)C=C(NCC2CCN(C(=S)Nc3ccccc3)CC2)C1
    0.6 | nt
- Cc1cccc2c(-c3ccccc3)cc(=O)[nH]c12
    1.3 | 0.1
- C[C@H](CO)N1C[C@H](C)[C@@H](CN(C)S(=O)(=O)c2cn(C)cn2)Oc2c(NC(=O)Nc3ccc4c(c3)OCO4)cccc2C1=O
    -0.6 | nt
- C[C@@H]1CN([C@H](C)CO)C(=O)c2cccc(NS(C)(=O)=O)c2O[C@H]1CN(C)Cc1ccccc1
    13 | nt
- C[C@@H]1CN([C@@H](C)CO)C(=O)c2cc(NS(=O)(=O)c3cn(C)cn3)ccc2O[C@H]1CN(C)CC1CC1
    -9.0 | 0.2
- C[C@H](CO)N1C[C@H](C)[C@H](CN(C)CC2CCCCC2)Oc2c(NS(=O)(=O)c3ccc(F)cc3)cccc2C1=O
    1.1 | nt
- CN1c2ccccc2C(=O)/C(=C\Nc2ncccn2)S1(=O)=O
    -2.6 | 0.8

Full records, looked up by structure. Screens in order: BJeLR viability, A1 inhib
`C[C@@H]1CN([C@H](C)CO)C(=O)c2cccc(NS(C)(=O)=O)c2O[C@H]1CN(C)Cc1ccccc1` reads 13, nt
`C[C@@H]1CN([C@@H](C)CO)C(=O)c2cc(NS(=O)(=O)c3cn(C)cn3)ccc2O[C@H]1CN(C)CC1CC1` reads -9.0, 0.2
`CN1c2ccccc2C(=O)/C(=C\Nc2ncccn2)S1(=O)=O` reads -2.6, 0.8
`C[C@H](CO)N1C[C@H](C)[C@@H](CN(C)S(=O)(=O)c2cn(C)cn2)Oc2c(NC(=O)Nc3ccc4c(c3)OCO4)cccc2C1=O` reads -0.6, nt
`Cc1cccc2c(-c3ccccc3)cc(=O)[nH]c12` reads 1.3, 0.1

Continuation.
Below each compound: BJeLR viability | A1 inhib
- CCOc1ccc(-c2n[nH]c(=S)n2C2C=CCCC2)cc1 (stereo not given)
    -7.0 | nt
- COc1ccccc1/C=C/C(=O)N1CCCC(c2ccccc2)C1 (stereo not given)
    3.1 | -1.1
- COc1ccc(S(=O)(=O)N(C)C[C@H]2Oc3c(NC(=O)Nc4cccc5ccccc45)cccc3C(=O)N([C@@H](C)CO)C[C@@H]2C)cc1
    -3.9 | nt
- CNC[C@H]1Oc2ccc(N)cc2C(=O)N([C@H](C)CO)C[C@@H]1C
    -2.6 | -0.5
- Cc1ccc(S(=O)(=O)Nc2cccc3c2O[C@H](CN(C)Cc2ccc(Cl)c(Cl)c2)[C@@H](C)CN([C@H](C)CO)C3=O)cc1
    -4.3 | nt
- CC(C)NC(=O)Nc1cccc2c1O[C@@H](CN(C)Cc1ccc(Cl)c(Cl)c1)[C@@H](C)CN([C@H](C)CO)C2=O
    2.5 | nt
- CNC[C@@H]1Oc2ccc(NS(=O)(=O)c3ccc(C)cc3)cc2C(=O)N([C@H](C)CO)C[C@H]1C
    3.2 | 0.6
- CCNC(=O)Oc1ccccc1
    -10 | -0.4
- Cc1ccc(S(=O)(=O)N(C)C[C@H]2Oc3c(NC(=O)Nc4ccc(F)cc4)cccc3C(=O)N([C@@H](C)CO)C[C@@H]2C)cc1
    0.0 | nt
- CCOc1nc(-c2ccc(Cl)cc2)nc2ccccc12
    -1.9 | 0.3
- COc1ccc(NC(=O)Nc2cccc3c2O[C@H](CN(C)S(=O)(=O)c2ccc(C)cc2)[C@@H](C)CN([C@H](C)CO)C3=O)cc1
    2.8 | nt
- Cc1cc(C(=O)Nc2cccc3c2O[C@@H](CN(C)Cc2ccncc2)[C@H](C)CN([C@H](C)CO)C3=O)n(C)n1
    -0.8 | nt
- CC1CCCC[C@H]2C(=O)C=C[C@H](O)[C@@H]2CC(=O)O1 (stereo not given in full)
    62* | -0.2
- Cc1noc(C)c1S(=O)(=O)N(C)C[C@H]1Oc2c(NS(=O)(=O)c3cn(C)cn3)cccc2C(=O)N([C@H](C)CO)C[C@@H]1C
    0.1 | nt
- CSc1ccc(-c2ccco2)nn1
    15 | -7.1
- CCN1CCCC1CNC(=O)Cn1c(=O)c2cccn2c2ccccc21 (stereo not given)
    -3.3 | -0.5
- Cn1c(O)c(C=Nc2cccc(Cl)c2)c2ccccc21
    2.9 | -5.2
- Cc1ccc(S(=O)(=O)N(C)C[C@H]2Oc3c(NC(=O)Nc4ccc5c(c4)OCO5)cccc3C(=O)N([C@H](C)CO)C[C@H]2C)cc1
    -8.7 | nt
- O=C(NC1CCCCC1)C1CCC(Cn2c(=S)[nH]c3ccccc3c2=O)CC1 (stereo not given)
    -3.3 | -0.2
- O=c1[nH]c2cc(Cl)ccc2c(O)c1-c1cccc(Oc2ccccc2)c1
    -3.2 | 0.4
- C[C@@H]1CN([C@H](C)CO)C(=O)c2cccc(NS(=O)(=O)c3ccc(F)cc3)c2O[C@H]1CN(C)S(=O)(=O)c1ccc(F)cc1
    5.1 | nt
- O=C(O)CCc1ccc(F)cc1
    -1.1 | -0.7
- O=C(Cc1cccs1)N1CCN(c2ccccc2)CC1
    -4.9 | 1.1
- C[C@H](CO)N1C[C@H](C)[C@@H](CN(C)C(=O)Nc2ccc(F)cc2)Oc2ccc(NC(=O)Cc3cn(C)c4ccccc34)cc2C1=O
    -2.7 | -0.4
- O=C(NCc1ccco1)c1ccc(Cn2c(=S)[nH]c3ccc(Br)cc3c2=O)cc1
    -1.1 | -0.2
- C[C@@H]1CN([C@H](C)CO)C(=O)c2cccc(NC(=O)Nc3ccc(C(F)(F)F)cc3)c2O[C@@H]1CN(C)C(=O)Nc1ccc2c(c1)OCO2
    -2.2 | nt
- COc1ccc(NC(=O)N(C)C[C@@H]2Oc3c(NS(=O)(=O)c4ccccc4)cccc3C(=O)N([C@H](C)CO)C[C@@H]2C)cc1
    1.0 | nt
- N#CCSc1nc2nccnc2c(=O)n1CCc1ccccc1
    -1.6 | 0.5
- COc1ccc(CN(C)C[C@@H]2Oc3ccc(NC(=O)CCN4CCOCC4)cc3C(=O)N([C@H](C)CO)C[C@@H]2C)cc1
    -2.6 | 0.3
- COc1ccc(NC(=O)Nc2ccc3c(c2)C(=O)N([C@@H](C)CO)C[C@@H](C)[C@H](CN(C)S(=O)(=O)c2cccs2)O3)cc1
    6.0 | 0.0
- COc1cc2c(c(OC)c1OC)-c1cc3c(cc1C[C@H]1C(=O)OC[C@@H]1C2)OCO3
    42 | 1.0
- C[C@H]1CN([C@@H](C)CO)C(=O)c2cc(NS(C)(=O)=O)ccc2O[C@@H]1CN(C)Cc1ccc(Oc2ccccc2)cc1
    -2.6 | 0.4
- C[C@@H]1CN([C@@H](C)CO)C(=O)c2cccc(NC(=O)Nc3cccc4ccccc34)c2O[C@H]1CN(C)C(=O)Nc1ccccc1
    -1.9 | nt
- C[C@H](CO)N1C[C@H](C)[C@H](CN(C)S(=O)(=O)c2cn(C)cn2)Oc2c(NC(=O)Nc3ccccc3)cccc2C1=O
    -0.1 | nt
- CCN1C(=O)S/C(=C\c2ccc3c(c2)OCO3)C1=O
    -2.9 | nt
- C[C@@H]1CN([C@@H](C)CO)C(=O)c2cc(NC(=O)CCC(F)(F)F)ccc2O[C@H]1CN(C)C(=O)Nc1ccccc1
    1.9 | 0.7
- Nc1ncnc2nc(N3CCCCC3)[nH]c12
    0.1 | 1.3
- FC(F)(F)c1ccnc(SCn2c(=S)sc3ccccc32)n1
    11 | -0.3
- COc1ccc(S(=O)(=O)N(C)C[C@H]2Oc3ccc(NC(=O)Cc4cn(C)c5ccccc45)cc3C(=O)N([C@@H](C)CO)C[C@@H]2C)cc1
    -1.3 | 0.4
- O=C(CCSc1nnc2scc(-c3ccc(Cl)cc3)n12)NCCc1ccccc1
    -3.3 | 1.1
- CCOc1ccccc1NC(=O)c1ccco1
    0.6 | 0.6
- Cc1cc(=O)[nH]c(SCC(=O)Nc2ccc(Br)cc2)c1C#N
    4.4 | 0.0
- COc1ccccc1-n1c(=O)c2c3c(sc2n2c(=S)[nH]nc12)CCC3
    -7.0 | -0.2
- C[C@H](CO)N1C[C@H](C)[C@@H](CN(C)C(=O)Nc2ccccc2)Oc2ccc(NS(=O)(=O)c3ccccc3)cc2C1=O
    -1.9 | -0.6
- O=C(NCCSc1c[nH]c2ccccc12)c1ccc(S(=O)(=O)N2CCCC2)cc1
    -5.5 | nt
- C[C@H]1CN([C@@H](C)CO)C(=O)c2cc(NS(C)(=O)=O)ccc2O[C@H]1CN(C)C(=O)Nc1ccc(F)cc1
    -1.9 | 0.1
- C[C@H](CO)N1C[C@H](C)[C@@H](CN(C)C(=O)Nc2ccc3c(c2)OCO3)Oc2c(NC(=O)Nc3ccccc3)cccc2C1=O
    -0.1 | nt
- C[C@H]1CN([C@@H](C)CO)C(=O)c2cccc(NC(=O)Nc3ccccc3)c2O[C@@H]1CN(C)S(=O)(=O)c1cccs1
    1.2 | nt
- O=S(=O)(Cc1ccccc1)NC1CCCCC1
    -1.5 | -0.5
- COc1ccc2oc3ccccc3c(=O)c2c1
    -0.2 | -6.6

Further structures
Below each compound: BJeLR viability | A1 inhib
- COC(=O)c1ccccc1NC(=O)c1ccc(Cn2cc(Cl)cn2)cc1
    0.7 | nt
- CC1Cc2ccc(F)cc2CN1C(=O)c1ccc(COc2ccccc2Br)o1 (stereo not given)
    4.9 | nt
- O=C(NCCC1=CCCCC1)c1cc(Sc2ccc(F)cc2)nc2ccccc12
    1.9 | nt
- CCOC(=O)/N=C(/c1ccc(Cl)cc1)c1cc2ccccc2cn1
    0.9 | -3.2
- O=C(Cn1c(=O)c2cccn2c2cccnc21)N1CCCC1
    -6.0 | 0.8
- COc1ccc(NC(=O)N(C)C[C@@H]2Oc3ccc(NC(=O)C4CCCCC4)cc3C(=O)N([C@@H](C)CO)C[C@H]2C)cc1
    0.3 | -0.5
- C[C@H]1CN([C@@H](C)CO)C(=O)c2cccc(NC(=O)Nc3cccc4ccccc34)c2O[C@H]1CN(C)S(=O)(=O)c1cccs1
    -0.5 | nt
- C[C@H](CO)N1C[C@H](C)[C@@H](CN(C)Cc2ccc3c(c2)OCO3)Oc2ccc(NC(=O)CCC(F)(F)F)cc2C1=O
    1.6 | -0.1
- C[C@H]1CN([C@@H](C)CO)C(=O)c2cc(NC(=O)Nc3ccc(F)cc3)ccc2O[C@H]1CN(C)C(=O)Nc1cccc2ccccc12
    -4.1 | -0.1
- COc1ccc(S(=O)(=O)NCc2cn3ccccc3n2)cc1F
    0.6 | -0.1
- CCC(C)NC(=O)Cn1c(=O)n(Cc2ccccc2Cl)c(=O)c2cc(OC)c(OC)cc21 (stereo not given)
    0.6 | nt
- CCS(=O)(=O)NCCc1csc(-c2ccccc2)n1
    2.0 | -1.1
- COc1ccc(S(=O)(=O)Nc2ccc3c(c2)C(=O)N([C@@H](C)CO)C[C@H](C)[C@H](CN(C)C(=O)Nc2c(C)noc2C)O3)cc1
    -1.1 | -0.2
- CC(C)NC(=O)Nc1ccc2c(c1)C(=O)N([C@H](C)CO)C[C@H](C)[C@@H](CN(C)Cc1ccccc1)O2
    4.2 | 0.1
- COC(=O)c1ccc(NC(=S)N2CCOCC2)cc1
    0.3 | 0.0
- COc1cc2c(C(=O)Nc3ccc(F)cc3)cn(CC(C)C)c(=O)c2cc1OC
    -6.8 | nt
- CCOC(=O)c1c(C)oc2c1c(C=NC1CCCC1)c(O)c1ccccc12
    0.6 | nt
- COc1ccc(CN(C)C[C@H]2Oc3c(NC(=O)c4nc5ccccc5s4)cccc3C(=O)N([C@@H](C)CO)C[C@@H]2C)cc1
    1.2 | nt
- CCOC(=O)c1nn(-c2cccc(Cl)c2)cc(Sc2ccc(Cl)cc2)c1=O
    1.9 | -0.4
- N#C/C(=C\c1ccc(Cl)cc1)c1ccccc1
    -5.1 | -1.4
- O=C(O)CCCc1nnc2n3nc(-c4ccccc4)nc3c3ccccc3n12
    2.6 | -0.7
- Cc1ccc(S(=O)(=O)N(C)C[C@@H]2Oc3c(NC(=O)Nc4ccc(C(F)(F)F)cc4)cccc3C(=O)N([C@@H](C)CO)C[C@H]2C)cc1
    -4.1 | nt
- CC(C)Cc1cc(-c2cccc(Br)c2)c(C#N)c(N)n1
    -6.6 | -0.4
- CCOC(=O)N1CCC(NC(=O)c2cc3cc4cc(OC)ccc4nc3o2)CC1
    4.4 | nt
- c1ccc(Cn2c3c(c4ccccc42)CCOc2ccccc2-3)cc1
    4.4 | 0.2
- Cn1cccc1Cc1nnc(SCC(=O)Nc2ccccc2C(F)(F)F)n1CCc1ccccc1
    -0.5 | -0.8
- COc1ccc(NC(=O)Nc2cccc3c2O[C@@H](CN(C)Cc2ccc(C(F)(F)F)cc2)[C@H](C)CN([C@@H](C)CO)C3=O)cc1
    1.2 | nt
- COc1ccc(N2CCN(C(=S)Nc3ccccc3)CC2)cc1
    -0.9 | nt
- COc1ccc(NC(=O)Nc2cccc3c2O[C@@H](CN(C)C(=O)Nc2cccc4ccccc24)[C@H](C)CN([C@@H](C)CO)C3=O)cc1
    0.5 | nt
- C=C1C(=O)O[C@H]2C1[C@H](OC(=O)/C(C)=C/CO)C/C(C)=C\CC[C@@]1(CO)OC21 (stereo not given in full)
    2.1 | -0.1
- O=C(Oc1ccccc1N1CCOCC1)c1ccco1
    -0.2 | 2.7
- Oc1ccc(C(=S)N2CCCCC2)cc1
    1.5 | 1.7
- CCNC(=O)N1CCN(CCCC(c2ccc(F)cc2)c2ccc(F)cc2)CC1
    5.8 | -2.0
- O=C(c1ccc2c(=O)n3c(nc2c1)CCCCC3)N1CCCC1
    7.3 | 0.1

Bioassay records: PubChem BioAssay, Broad Institute

These rows are one share of the data. The share of hits here may be higher or lower than overall.
